Screening results deposited in PubChem by National Center for Advancing Translational Sciences (NCATS).
miR-21 FLuc – qHTS Assay for Modulators of miRNAs and/orActivators of miR-21; Potency, µM (titrated, usually from 38.3 µM), without a hit: at the highest dose reporter change, positive = more light; 340,000 tested, under 10 active; HeLa miR-21 FLuc reporter, luciferase, 48 h; active = well fitted rising curve with a large enough effect; inconclusive = small, poorly fitted or top-dose-only effect; inactive = no such curve, though single readings can be large or run the other way;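 note: % of control where 0% means no effect; miR-21 action dims this reporter so a rising signal means less miR-21 action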
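Luminescence from a firefly luciferase reporter carrying a miR-21 binding site downstream, stably expressed under a CMV promoter in HeLa cells that make miR-21 endogenously, reports miRNA modulation after 48 h compound exposure up to approximately 40uM final.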
GLA inh pH 4.5 – qHTS Assay for Inhibitors of Human alpha-Galactosidase at pH 4.5; Alpha-galactosidase A (Homo sapiens), P06280; purified enzyme, 4-MU-alpha-Gal fluorescence, pH 4.5; activity change, negative = inhibition, % at 105 µM; 230,000 tested, under 10 active; AID 1467, 2008; inconclusive = small, poorly fitted or top-dose-only inhibition, or a rising curve; inactive = flat fitted curve, though single readings scatter; no compound was filed as active;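 note: 0% = full activity with enzyme and -100% = basal without enzyme; dose as in the result columns while the protocol names 77 µM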
Rango-impB inh – qHTS Assay for Inhibitors of Rango (Ran-regulated importin-beta cargo) - Importin beta complex formation; Importin subunit beta-1 (Homo sapiens), Q14974; Rango CFP/YFP FRET sensor + importin beta, 45 min; Potency, µM (top dose mostly 92.2 µM), for the others: at the top dose inhibition of complex formation; 0.031% of 340,000 active; active = rising FRET ratio curve, often small or poorly fitted; inconclusive = mostly compound fluorescence or quenching in the first reads; inactive = flat curves in all reads;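 note: potency is the fitted concentration of half-maximal effect; 0% = DMSO wells and 100% = buffer wells lacking importin beta; nearly all actives have a fitted effect of over 15% in size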
Target sequence (Q14974 whole entry, looked up): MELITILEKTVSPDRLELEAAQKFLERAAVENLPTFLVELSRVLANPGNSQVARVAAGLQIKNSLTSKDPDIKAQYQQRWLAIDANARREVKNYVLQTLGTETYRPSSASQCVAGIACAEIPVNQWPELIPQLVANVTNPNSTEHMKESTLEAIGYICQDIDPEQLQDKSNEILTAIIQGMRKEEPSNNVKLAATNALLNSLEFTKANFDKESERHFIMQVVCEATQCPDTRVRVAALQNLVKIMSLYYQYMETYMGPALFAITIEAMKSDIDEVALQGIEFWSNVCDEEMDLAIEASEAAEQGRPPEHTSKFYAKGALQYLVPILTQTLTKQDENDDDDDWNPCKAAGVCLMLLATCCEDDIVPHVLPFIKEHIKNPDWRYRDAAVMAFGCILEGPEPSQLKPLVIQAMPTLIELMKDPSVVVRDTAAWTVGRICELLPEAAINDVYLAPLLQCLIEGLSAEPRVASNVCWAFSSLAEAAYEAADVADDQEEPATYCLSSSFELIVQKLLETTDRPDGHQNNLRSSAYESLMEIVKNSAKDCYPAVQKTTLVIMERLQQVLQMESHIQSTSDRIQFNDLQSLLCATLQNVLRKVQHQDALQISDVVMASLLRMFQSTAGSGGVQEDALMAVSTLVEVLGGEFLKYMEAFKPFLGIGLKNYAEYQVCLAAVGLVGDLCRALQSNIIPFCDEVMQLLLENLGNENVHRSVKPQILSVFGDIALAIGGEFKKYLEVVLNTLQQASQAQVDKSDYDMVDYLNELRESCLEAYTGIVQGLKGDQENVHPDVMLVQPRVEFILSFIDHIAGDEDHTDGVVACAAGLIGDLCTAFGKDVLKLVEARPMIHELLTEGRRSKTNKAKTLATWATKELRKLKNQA
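FRET biosensor (snurportin 1 IBB flanked by EYFP and cerulean), 50 nM, with compound 5 min, then 0.125 microM importin beta in PBS, 1 mM DTT, 0.02% Tween-20, 0.1% BSA. CFP/YFP ratio read after 45 min at room temperature; pre-read flags interference.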
Rango dissoc inh – qHTS Assay for Inhibitors of RanGTP induced Rango (Ran-regulated importin-beta cargo) - Importin beta complex dissociation. Snurportin-1 (Homo sapiens) + GTP-binding nuclear protein Ran (Homo sapiens) + Importin …. Biochemical FRET Rango-importin beta, RanGTP-induced dissociation. Potency, µM (top dose mostly 46.1 µM), inactives show top-dose activity change, negative = inhibition. 0.071% of 340,000 active. AID 540253, 2011; active means falling FRET ratio curve, often poorly fitted, with flat reads before Ran was added; inconclusive means other falling curves, or compound fluorescence or quenching; inactive means flat or rising ratio curve;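 note: potency is the fitted concentration of half-maximal effect; % of control where 0% means no effect; nearly all actives have a fitted effect of over 45% in size; -100% = wells without RanGTP and RCC1; the record marks most hits as doubtful in a second field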
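Quantitative HTS using a FRET biosensor: 0.1 uM Rango, 0.25 uM importin beta, 0.6 uM Ran, 2 mM GTP, 0.2 uM RCC1 final, PBS with DTT, Tween-20 and BSA. Post-read taken 45 min after Ran addition.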
Starred values were filed as active, the others as inactive; u = inconclusive; x = no result given; & = joins results of further samples; [ ] = another dose, or the depositor's remark. Not all compounds are listed. The share of hits here may be higher or lower than overall.

SMILES	miR-21 FLuc	GLA inh pH 4.5	Rango-impB inh	Rango dissoc inh
CN(C(=O)C1CCN(S(=O)(=O)c2ccccc2)CC1)c1c(N)n(Cc2ccccc2)c(=O)[nH]c1=O	x	x	-1.8%	2%
CCOc1cc(S(=O)(=O)Nc2ncn[nH]2)ccc1Br	-1%	x	-5.6%	-4%
O=C(NC1CCCC1)c1ccc2nc[nH]c2c1	-6%	2	-0.5%	-3%
Cc1cc(NC(=O)COC(=O)c2cc([N+](=O)[O-])ccc2N2CCOCC2)ccc1Br	x	x	u	0%
COc1cccc(C(=O)N[C@@H](C)C(=O)N2CCC3(CC2)NCCc2[nH]cnc23)c1	0%	x	-0.5%	15%
CC(NC(=O)C(c1ccccc1)c1ccccc1)C(=O)O (stereo unspecified)	-3%	-2	3.3%	15%
Cc1oc(-c2ccc(Cl)cc2)nc1CS(=O)CC(=O)NCc1cccs1 (stereo unspecified)	-6%	0	0.4%	9%
O=C1OCC(c2ccccc2)=C1c1ccccc1	0%	x	-1.7%	4%
Cc1cc(=O)[nH]c(SCC(=O)Nc2nc(-c3ccccc3)c(-c3ccccc3)o2)n1	-11%	5	-2.3%	-8%
c1ccc2c(c1)nnn1c3ccccc3nc21	-25%	2	x	x
CCc1sc(NC(C)=O)nc1-c1ccccc1	3%	-24	4.1%	-9%
Cc1c(Cl)cccc1NC(=O)Nc1ccc(C(=O)N2CCCC2)cc1	-13%	3	0.9%	23%
O=C(CSc1ccc([N+](=O)[O-])cn1)Nc1ccc2c(c1)OCCO2	-7%	6	2.0%	-1%
CCCCn1nnc(NC(=O)c2ccc([N+](=O)[O-])cc2Cl)n1	-20%	1	3.5%	13%
O=C(OCc1ccccc1)/C(=C/c1ccc(Cl)cc1)NC(=O)c1ccccc1Cl	-8%	2	u	-7%
COC(=O)c1ccc(S(=O)(=O)NCc2ccc(S(N)(=O)=O)cc2)o1	-1%	2	0.6%	50%
O=c1cc(Cn2ccnc2)c2cc(O)ccc2o1	-2%	x	-1.9%	-5%
COCCNC(=O)Cn1nc(-c2ccc(C)cc2)ccc1=O	-2%	x	-0.8%	-1%
COC(=O)CCCNC(=O)c1ccc2[nH]c(C)c(C)c2c1	-22%	-6	0.4%	3%
O=C(Nc1ccc(NC(=O)c2ccc(Cl)cc2Cl)cc1)c1ccc2c(c1)OCO2	1%	x	0.5%	-7%
N#C/C(=C\c1cn(CC(=O)N2CCCCC2)c2ccccc12)C(=O)NCc1ccc2c(c1)OCO2	-15%	-7	u	-18%
Cn1c(=O)c2c(nc(N3CCN(Cc4ccccc4)CC3)n2CCSc2ncccn2)n(C)c1=O	1%	-3	x	x
Oc1ccc(N=Cc2ccc(OCc3ccccc3)cc2)cc1	-4%	2	-0.6%	4%
Cc1cc(/C=C(/C#N)C(=O)O)c(C)n1-c1cccc2ccccc12	-17%	x	5.5%	0%

Arranged by the number under Rango dissoc inh (smallest number first): five from the list above.
SMILES	miR-21 FLuc	GLA inh pH 4.5	Rango-impB inh	Rango dissoc inh
O=C(OCc1ccccc1)/C(=C/c1ccc(Cl)cc1)NC(=O)c1ccccc1Cl	-8%	2	u	-7%
O=c1cc(Cn2ccnc2)c2cc(O)ccc2o1	-2%	x	-1.9%	-5%
Cc1cc(/C=C(/C#N)C(=O)O)c(C)n1-c1cccc2ccccc12	-17%	x	5.5%	0%
COC(=O)CCCNC(=O)c1ccc2[nH]c(C)c(C)c2c1	-22%	-6	0.4%	3%
COC(=O)c1ccc(S(=O)(=O)NCc2ccc(S(N)(=O)=O)cc2)o1	-1%	2	0.6%	50%

(more compounds)
SMILES	miR-21 FLuc	GLA inh pH 4.5	Rango-impB inh	Rango dissoc inh
COc1cc(Cc2nccc3cc(OC)c(OC)cc23)c(S(=O)(=O)O)cc1OC	-3%	x	0.3%	7%
CN(C)CCCNc1c2c(c(C#N)c3nc4ccccc4n13)CCC2	-5%	-4	x	x
Cc1ccc(S(=O)(=O)N2CCN(C(=O)c3cccs3)CC2)cc1C	-1%	4	5.0%	28%
COC(=O)C1(C)CCc2cc(OC)ccc2C1=O (stereo unspecified)	-17%	5	2.3%	3%
CCc1ccc(-c2cc3c(=O)n(CC(=O)NCCCN4CCC(Cc5ccccc5)CC4)nc(C)n3n2)cc1	0%	x	3.4%	2%
Cn1c(N2CCN(S(=O)(=O)c3ccc(Cl)cc3)CC2)nc2ccccc21	-2%	-10	-1.0%	-11%
O=C(C[C@@H]1C/C=C\C[C@H](NC(=O)OCC2c3ccccc3-c3ccccc32)C(=O)OC[C@H]2CCCN2C1=O)N[C@@H](CO)Cc1ccccc1	x	x	-0.5%	-11%
O=C(NC(=O)c1ccccc1)Nc1ccc(-c2cnco2)cc1	-50%	-3	0.0%	-2%
O=C(NCCC(c1ccccc1)c1ccccc1)c1cnccn1	-10%	11	2.8%	-6%
C=CCn1c(O)c(CN2CCN(Cc3ccccc3)CC2)c(C)c(C#N)c1=O	-4%	5	u	u
COCCNC(=O)CCCn1c(=O)c2cc(OC)c(OC)cc2n(CC(=O)NCCC2=CCCCC2)c1=O	-1%	1[21.1 µM]	3.3%	1%
CCC1CCC(C(=O)NNC(=O)OC)CC1 (stereo unspecified)	-6%	-2	-0.5%	-8%

Just Rango dissoc inh, for some of the entries so far:
structure	Rango dissoc inh
CCc1ccc(-c2cc3c(=O)n(CC(=O)NCCCN4CCC(Cc5ccccc5)CC4)nc(C)n3n2)cc1	2%
Cn1c(N2CCN(S(=O)(=O)c3ccc(Cl)cc3)CC2)nc2ccccc21	-11%
O=C(C[C@@H]1C/C=C\C[C@H](NC(=O)OCC2c3ccccc3-c3ccccc32)C(=O)OC[C@H]2CCCN2C1=O)N[C@@H](CO)Cc1ccccc1	-11%
O=C(NC(=O)c1ccccc1)Nc1ccc(-c2cnco2)cc1	-2%
O=C(NCCC(c1ccccc1)c1ccccc1)c1cnccn1	-6%
C=CCn1c(O)c(CN2CCN(Cc3ccccc3)CC2)c(C)c(C#N)c1=O	u
COCCNC(=O)CCCn1c(=O)c2cc(OC)c(OC)cc2n(CC(=O)NCCC2=CCCCC2)c1=O	1%

(further entries)
SMILES	miR-21 FLuc	GLA inh pH 4.5	Rango-impB inh	Rango dissoc inh
O=C(NCCc1c[nH]c2ccccc12)C1Cc2ccccc2CN1C(=O)c1ccco1 (stereo unspecified)	-4%	0	3.6%	-11%
CCC(C)(C)NC(=O)CN(C(=O)CNS(=O)(=O)c1ccc(C)cc1)c1ccc2c(c1)OCCO2	-6%	3	-5.0%	7%
CN(C(=O)COC(=O)C1CCN(S(=O)(=O)c2c(Cl)cccc2Cl)CC1)C1CCS(=O)(=O)C1 (stereo unspecified)	x	x	0.7%	-3%
O=C(Nc1ccccc1)Nc1ccccc1C(=O)NCC1CC1	-8%	0	0.2%	-9%
COc1ccc(CNC(=O)c2ccc3c(c2)NC(=O)C(C)S3)cc1 (stereo unspecified)	-33%	-9	1.7%	-15%
Brc1cc(Cc2nnc(-c3ccccc3)o2)c(Br)s1	-1%	-4	-2.4%	-11%
O=C(c1ccccc1)c1ccc(C(=O)O)c(C(=O)O)c1	x	x	-0.8%	1%
CC[C@H](C)[C@H](NC(N)=O)C(=O)Nc1ccc(S(=O)(=O)NC(C)C)cc1	0%	2	-2.8%	1%
O=C(NN=C1CCCC1)c1ccccc1O	-9%	x	-1.3%	0%
Cn1nnnc1SCC(=O)NCc1cccs1	-12%	-3	-4.4%	5%
CCOC(=O)c1c(NC(=O)COC(=O)CCNS(=O)(=O)c2ccccc2)sc(C(=O)NC)c1C	x	x	-0.1%	1%
CC1CCN(CCCNC(=O)C2CCN(S(=O)(=O)N3CCC4(CC3)OCCO4)CC2)CC1	-1%	x	0.4%	-26%
CC(/C=C/C=C/c1ccccc1)=N/NC(=O)c1ccc2c(c1)OCCO2	-29%	-11	0.4%	-5%
CNCCOc1ccccc1OC(C)C	-5%	3	2.8%	0%
COc1cccc(CNC(=O)c2ccc(C)c(S(=O)(=O)N3CCCCC3)c2)c1	x	x	7.0%	u
O=C(CSc1ccccc1C(=O)O)c1ccccc1	-33%	x	-1.1%	-3%
CCOC(=O)c1cccc(NC(=O)/C(=C\c2ccccc2)NC(=O)c2ccccc2Cl)c1	-1%	0	5.2%	1%
CCn1cc(C(=O)NCc2ccco2)c(=O)c2cc(S(=O)(=O)N3CC(C)CC(C)C3)ccc21 (stereo unspecified)	15%	-9	1.3%	12%
COc1cccc(Cn2nc3c4cc(F)ccc4n(Cc4ccc(F)cc4)cc-3c2=O)c1	0%	x	1.3%	-8%
CCN(C(=O)COC(=O)/C=C/c1ccccc1[N+](=O)[O-])C1CCS(=O)(=O)C1 (stereo unspecified)	-1%	-3	-0.9%	0%
O=C(CCNS(=O)(=O)c1ccc2c(c1)CCC(=O)N2)Nc1ccc(F)c(F)c1	3%	x	-0.4%	4%
O=C(NC(C(=O)c1ccccc1)N1CCCCCC1)c1ccco1 (stereo unspecified)	-13%	4	0.0%	2%
CCCC1CCc2c(c3ccccc3[nH]c2=O)O1 (stereo unspecified)	-1%	-3	-4.9%	15%
CN(C)c1nc(OCc2ccccc2)c2ncc(=O)[nH]c2n1	x	x	-2.6%	-18%
CCC(COC)NC(=O)c1ccc(OC)c(OC2CCN(C(C)=O)CC2)c1 (stereo unspecified)	-3%	x	4.0%	-12%
N#Cc1cn(CC(=O)N2CCc3ccccc3C2)c2ccccc12	-1%	-2	-2.5%	5%
CC1(c2ccc(Cl)cc2)NC(=O)N(CC(=O)NCc2cccs2)C1=O (stereo unspecified)	-9%	1	0.9%	24%
CCC(=O)N1CCc2cc(S(=O)(=O)CCC(=O)NCc3ccc(OC)cc3)ccc21	1%&0%	x	-7.2%	-9%
CC(=O)Oc1cc2c(C(=O)NCCCN3CCOCC3)c(C)oc2c2ccccc12	17%	-9	-2.3%	0%
COc1ccc(CNC(=O)c2ccc(NS(=O)(=O)c3ccc4[nH]c(=O)[nH]c4c3)cc2)cc1OC	x	x	0.2%	6%
O=C(Nc1cc(Cl)ccc1-n1cncn1)c1cc(F)cc(F)c1	x	x	-3.4%	0%
Cc1ccc(C(=O)N/C(=C\c2cccnc2)C(=O)N2CCCC2)cc1	-3%	x	1.5%	-3%
CNc1nc(=S)[nH]c2ccccc12	-4%	2	u	-1%
Cc1ccccc1CN1C(=O)CS/C1=N/N=C/c1ccco1	-1%	-2	0.0%	-5%
COc1cccc(Nc2ncnc3sc(C)cc23)c1	-65%	x	u	-10%
NC(=O)CN(c1ccccc1)C1SC(=O)N(Cc2ccccc2)C1=O (stereo unspecified)	-6%	-20	-1.7%	12%
Cc1csc(=N)n1CC(=O)N1CCc2ccccc21	-6%	0	-2.3%	1%
Cc1ccc(NC(=O)C(C)N2C(=O)c3ccccc3C2=O)cc1 (stereo unspecified)	0%	0	-1.5%	13%
